PrP 5UTR inh: inhibition of PrP 5' UTR reporter expression. cell-based PrP 5' UTR mRNA reporter, plate reader. inhibition, % (no concentration beside the values). hit rate 0.35% among 340,000;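 active = every replicate at 50% or more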;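 note: 0 = median of the neutral control wells; tested in H4 reporter cells; numbers are from one replicate; inactives centre near -14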
Bead autofluor: compound fluorescence in toxin protease inhibitor counterscreen; compound autofluorescence counterscreen, microsphere flow cytometry; active compounds read high; fluorescence intensity (test concentration not listed); hit rate 3.1% among 360,000; AID 624483;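 active = at least 3 SD above the mean of all compounds, about 16000 in these data; inconclusive = too few beads counted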;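 note: 100 nL of 1 mM stock went into each well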
RN4220 kill: growth inhibition of S. aureus RN4220, primary screen, OD600 | inhibition, % (concentration not given with the values) | AID 1259311, 2017 | 16 h | hit rate 0.33% among 330,000;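 active = z-score of -3 or lower and OD600 up to 0.18 on both plates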;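 note: plate controls were untreated cells for no effect and reference antibiotic for full effect; stock transfer was 100 nL into about 80 µL; one replicate is shown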
ugtP null kill: growth inhibition of ugtP-null S. aureus, primary screen, RN4220 ugtP deletion, OD600 | 16 h; some inactives read as strong as hits | hit rate 0.54% among 330,000 | growth inhibition, % (concentration not given with the values);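 active = z-score under -3 and OD600 up to 0.15 on both plates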;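 note: plate controls were untreated wells for no effect and antibiotic for full effect; wells of about 80 µL received 100 nL stock; the first replicate is given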
Mtb hypoxia inh: PubChem AID 1159583. M. tuberculosis hypoxia-regulated fluorescent reporter, fluorescence. fluorescence inhibition, % (test concentration not listed). hit rate 0.1% among 300,000;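 active = 35 to 45% if threefold the growth effect, above 45% if 1.5-fold the growth effect; inactive = the rest, general growth blockers included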;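 note: wells of about 50 µL received 100 nL stock; 0% = vehicle wells and 100% = reference inhibitor wells; whole bacteria with a GFP reporter of the hypoxia response; strong numbers were not always called active; many hits fall short of the cut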
BJeLR viability: MLPCN primary cell-based screen for lethality selective to Ras in HRASV12 cells; BJeLR (HRASV12) viability, CellTiter-Glo ATP luminescence, 48 h; reference of the scale not given here; inhibition, % (test concentration not listed); hit rate 0.17% among 300,000;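 active = replicate mean above 50%; inconclusive = above 50% but judged a plate artefact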;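 note: 50 nL library stock added to about 25 µL; numbers are from one replicate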
Mtb hypoxia inh growth: recorded beside Mtb hypoxia inh, whose call it bears; growth inhibition, %; measured here: M. tuberculosis growth (absorbance);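 0% = vehicle and 100% = reference antibiotic; read after six days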
The depositor's hits bear a star; ? = inconclusive; · = not tested or not shown.

Compound	BJeLR viability	ugtP null kill	Mtb hypoxia inh	PrP 5UTR inh	RN4220 kill	Mtb hypoxia inh growth	Bead autofluor
C/C(=N\OC(=O)c1ccc(F)cc1)c1sc(-c2ccc(Cl)cc2)nc1C	9	·	·	-89	·	·	4598
C[C@@H]1CN([C@H](C)CO)C(=O)c2cc(NC(=O)c3ccncc3)ccc2O[C@@H]1CN(C)C(=O)Nc1ccccc1	·	7	8	-16	-2.5	1	2690
O=C(COc1ccc(Br)cc1Cl)c1ccc[nH]1	2	-1	5	-28	2.1	3	4689
CC(C)=CC1CC(C)C2CCC(C)c3c(O)c(O)c(C)c1c32 (centres undefined)	·	10	2	·	-1.6	14	·
O=C(CCNS(=O)(=O)c1ccccc1)N1CCOCC1	-6	0	-14	-8	0.6	-2	6092
C=CCOc1ccc(/C=C2\N=C(C)OC2=O)cc1OC	1	8	11	-38	1.5	5	3404
CCOc1cc(/C=N/Nc2nc(=O)[nH]nc2C)ccc1O	-1	·	·	-14	·	·	3618
CS(=O)(=O)Oc1ccc(Br)cc1/C=C1/N=C(c2ccco2)OC1=O	8	1	0	2	2.3	3	2468
Cn1c(=O)c2c(nc(SCC(=O)NCc3ccc4c(c3)OCO4)n2Cc2ccc(F)cc2)n(C)c1=O	-7	5	7	-23	-8.5	8	4040
O=C(O)COc1ccccc1C=NNC(=O)CSc1nc2ccccc2s1	·	-2	13	·	4.5	4	·
Cc1cc(=O)oc2c3c(cc(OCC(=O)NCc4ccncc4)c12)OC(C)(C)CC3	13	-13	·	-14	4.3	·	5047
COc1ccccc1N(C(=O)Cn1nnc(-c2ccc(C)o2)n1)C(C(=O)NC1CCCC1)c1ccncc1 (centres undefined)	-6	-5	-2	-1	2.7	-5	3990
Cc1ccc(S(=O)(=O)Nc2cc(-c3ccccc3)nn2C)cc1	-6	0	7	·	4.9	14	·
Cc1cc(C)c(C2=Nn3c(C)nnc3SC2C)cc1C (centres undefined)	0	5	1	-16	-2.3	0	3544
CCc1ccccc1NC(=O)CNC(=O)c1ccc(-n2cncn2)c([N+](=O)[O-])c1	-12	2	3	-2	-0.9	-4	6088

Among those listed so far, these contain a halogen.
Compound	BJeLR viability	ugtP null kill	Mtb hypoxia inh	PrP 5UTR inh	RN4220 kill	Mtb hypoxia inh growth	Bead autofluor
C/C(=N\OC(=O)c1ccc(F)cc1)c1sc(-c2ccc(Cl)cc2)nc1C	9	·	·	-89	·	·	4598
O=C(COc1ccc(Br)cc1Cl)c1ccc[nH]1	2	-1	5	-28	2.1	3	4689
CS(=O)(=O)Oc1ccc(Br)cc1/C=C1/N=C(c2ccco2)OC1=O	8	1	0	2	2.3	3	2468
Cn1c(=O)c2c(nc(SCC(=O)NCc3ccc4c(c3)OCO4)n2Cc2ccc(F)cc2)n(C)c1=O	-7	5	7	-23	-8.5	8	4040

The list goes on.
Compound	BJeLR viability	ugtP null kill	Mtb hypoxia inh	PrP 5UTR inh	RN4220 kill	Mtb hypoxia inh growth	Bead autofluor
COc1ccc(OC)c(CNC(=O)Cc2c(C(=O)O)[nH]c3ccccc23)c1	-1	-13	13	-29	4.7	6	10177
CC1=NN(C(=O)c2ccoc2C)C(O)(C(F)(F)F)C1 (centres undefined)	7	7	14	-12	4.7	2	?
COc1ccc(NC(=O)c2cc(-c3ccc4c(c3)OCO4)on2)cc1	0	8	5	-19	6.6	0	2964
COc1ccc(/C=N/N=C2\SCC(=O)N2c2c(C)n(C)n(-c3ccccc3)c2=O)cc1OC	-6	·	·	-30	·	·	2211
COc1ccccc1CNC(=O)CN(c1cccc([N+](=O)[O-])c1)S(C)(=O)=O	4	-3	9	-32	7.1	7	4086
Cc1cccc(NC(=O)CNC(=O)COc2ccc(-c3ccc(C#N)cc3)cc2)c1C	11	4	-1	-11	9.4	1	2093
CC(C)(C)c1ccc(OCC(=O)Nc2cccc(S(=O)(=O)NC3=NCCCCC3)c2)cc1	·	2	3	-9	6.0	0	7649
COc1ccc(C(=O)c2cc([N+](=O)[O-])ccc2N2CCCC2)cc1	28	26	7	-16	1.3	1	2558
CCn1c(=N)n(CC(O)COc2cccc(C)c2)c2ccccc21 (centres undefined)	1	-11	0	-18	6.3	8	6500
Cc1cc2nc3c(c(=O)n2[nH]1)CCCC3	0	5	3	-17	3.7	12	2887
Cc1nn(Cc2ccc(F)cc2)c(Cl)c1/C=N/NC(=O)c1ccccc1	-2	·	·	-49	·	·	4035
O=C(COc1ccccc1)Nc1ccc(N2CCCCC2)cc1	-5	7	5	-13	2.7	-8	?
O=C(O)CCCNc1c(C(=O)Nc2ccc(Cl)cc2)cc([N+](=O)[O-])cc1[N+](=O)[O-]	-6	15	-1	-25	2.0	8	2001
COc1ccc(NC(=O)c2ccc(C(=O)c3ccccc3)o2)cc1	·	6	·	-18	-0.6	·	4346
CC(=O)c1ccc(OCCCC(=O)N2CCN(S(=O)(=O)c3ccc(C(C)C)cc3)CC2)cc1	-5	9	4	-20	-5.1	-4	5710
CC1CCc2ccccc2N1CC(=O)Nc1cccc(S(=O)(=O)N2CCCC2)c1 (centres undefined)	·	2	6	-6	2.9	6	6988
COc1cccc(N2CCN(CC(=O)NC3=Nc4ccccc4N=C(C)C3c3ccccc3)CC2)c1 (centres undefined)	-4	·	·	-30	·	·	5157
CCCc1cc(C(=O)N2CCCC(C(=O)c3cccc4ccccc34)C2)n(C)n1 (centres undefined)	0	2	3	-55	3.8	-2	4218
CC(C)Cc1ccc(C(C)NC(=O)c2ccc(=O)[nH]c2)cc1 (centres undefined)	-3	-3	12	-19	3.6	5	4332
O=C(Cc1ccccc1)NC(Cc1ccc(Cl)cc1)C(=O)O (centres undefined)	-17	0	13	-28	5.6	20	6460
Fc1ccc(Cn2nnnc2CN2CCC(n3nnc4cc(C(F)(F)F)ccc43)CC2)cc1	-4	11	2	-19	3.8	4	5661
Cc1nn(CCC(=O)NNC(=S)Nc2ccc(F)cc2)c(C)c1Br	-3	1	13	-7	4.5	7	1905
CCOc1cc(/C=C2\NC(=O)NC2=O)cc([N+](=O)[O-])c1O	-1	1	16	9	6.1	6	4407
CN(C)CCCn1c(SCc2ccc(Cl)cc2)nnc1-c1ccncc1	-11	0	-6	-44	5.0	-4	3820
CCOC1OC(C(=O)N2CCN(Cc3ccccc3)CC2)=CC(c2ccc(C(F)(F)F)cc2)C1CCCO (centres undefined)	·	0	1	·	-3.3	8	·
O=C(c1ccccc1)c1ccccc1C(=O)N1CCOCC1	12	10	3	-21	2.3	-2	15638
CCOc1ccc(/C=C/C(=O)Oc2ccc(OC)cc2)cc1	-3	15	10	-15	3.9	-13	4006
COc1ccc(S(=O)(=O)Nc2cc(S(=O)(=O)c3ccccc3)c(O)cc2C)cc1	-2	8	-1	-19	15	0	5144
O=C(N/N=C/c1ccc(OCc2ccccc2)cc1)c1ccncc1	-1	·	·	-21	·	·	2576
CCc1ccc(-c2nnn(Cc3nn[nH]n3)n2)cc1	-8	-3	4	-23	6.8	12	20121*

For reference, part of the list above.
Compound	BJeLR viability	ugtP null kill	Mtb hypoxia inh	PrP 5UTR inh	RN4220 kill	Mtb hypoxia inh growth	Bead autofluor
CC1CCc2ccccc2N1CC(=O)Nc1cccc(S(=O)(=O)N2CCCC2)c1 (centres undefined)	·	2	6	-6	2.9	6	6988
COc1cccc(N2CCN(CC(=O)NC3=Nc4ccccc4N=C(C)C3c3ccccc3)CC2)c1 (centres undefined)	-4	·	·	-30	·	·	5157
CCCc1cc(C(=O)N2CCCC(C(=O)c3cccc4ccccc34)C2)n(C)n1 (centres undefined)	0	2	3	-55	3.8	-2	4218

Next part
Compound	BJeLR viability	ugtP null kill	Mtb hypoxia inh	PrP 5UTR inh	RN4220 kill	Mtb hypoxia inh growth	Bead autofluor
Cc1ccc(-c2nnc(SCC(N)=O)n2C)cc1	9	1	7	-20	3.9	8	4617
COc1ccc(NC(=O)CNS(=O)(=O)c2ccc(Cl)cc2)cc1	0	-6	·	-2	6.0	·	4896
COc1ccc(-n2c(O)c(C(C)=NCCc3c[nH]c4ccccc34)c(=O)[nH]c2=O)cc1	-10	-1	8	·	2.6	-2	4511
O=C(CCCOc1ccc(Cl)cc1Cl)N1CCCc2ccccc21	5	-8	13	-17	2.0	12	2498
COC(=O)c1ccc(C2NC(=O)CCC2[N+](=O)[O-])cc1 (centres undefined)	0	1	-7	2	0.0	1	3634
N#Cc1c(N)c(C(=O)c2ccc(Cl)cc2)n2c1CCC2	-2	4	·	-15	1.0	·	2346
Cc1occc1C(=O)NNC(=O)C1CCCCC1	-10	6	12	-13	1.9	3	2641
COc1ccc(C(C)=NOCC(=O)Nc2nc3ccccc3s2)cc1	·	-1	-3	·	-2.0	-5	·
Cc1ccc(C)c(C(=O)O/N=C(\N)c2ccc(Br)cc2)c1	9	-3	4	-46	-3.9	9	4979
Cc1ccc(NC(=S)NNC(=S)NC2CCCCC2)cc1	-2	5	16	-18	0.8	2	4563
O=C(Nc1ccc(N2CCOCC2)c(Cl)c1)c1cccnc1	0	2	·	-36	0.5	·	2570
CC(C)Oc1cccc(C(=O)C2CCCN(Cc3cccn3-c3cccnc3)C2)c1 (centres undefined)	-1	12	0	-9	6.3	10	3648
Cc1onc(-c2ccccc2)c1C(=O)N1CCc2ccccc21	-14	-3	11	-29	7.4	8	7471
COc1ccc(Cl)cc1-c1nc(-c2ccc(NC(=O)c3cccs3)cc2)no1	13	·	·	-40	·	·	2256
CC(C)NC(=O)c1cc2ccccc2o1	-4	-2	·	-30	4.4	·	9327
O=C(NN=Cc1ccc(F)cc1)c1cccc(NC(=O)c2ccc(F)cc2)c1	·	-8	6	·	1.7	1	·
Cc1nn(C(C)C)c(C)c1CN1CCN(Cc2ccsc2)C(CCO)C1 (centres undefined)	-9	1	6	-30	4.4	6	2048
CCOC(=O)CSc1nc(C2CC2)nc2ccccc12	-2	5	11	-10	18	-4	8919
Cc1[nH]c2ccccc2c1C(=O)CN1CCN(C2CCCCC2)CC1	·	-6	3	·	-9.6	11	·
COC(=O)c1ccccc1NC(=O)c1cc2n(n1)C(C(F)F)CC(C(F)F)N2 (centres undefined)	1	-8	·	-10	5.1	·	2143
COc1ccc(CCN(C)CCc2ccc(OC)c(OC)c2)cc1OC	1	3	0	-10	2.5	9	5503
COc1ccc(S(=O)(=O)c2c(C)c(NS(=O)(=O)c3ccccc3)cc(C)c2O)cc1	4	-1	14	-19	-13	13	3358
CC(NC(=O)C1=CC=CN2CCS(=O)(=O)N=C12)c1ccc(Cl)c(Cl)c1 (centres undefined)	·	-2	-3	-5	0.4	10	3859
Nc1nonc1-n1nnc(C(=O)NN=Cc2ccncc2)c1CSc1ccccc1	·	13	-2	·	5.9	-13	·
CCOC(=O)C(C)Sc1nc2ccccc2c(=O)n1CC (centres undefined)	·	-3	·	-3	3.5	·	2814
CCc1c(C)nc(SCC(=O)CC(=O)OC(C)C)c(C#N)c1C	-1	4	3	-36	2.6	6	8481
C#CCOCCOCCOCCNc1nc(N2CCN(C(=O)Cn3cc(CCCCN)nn3)CC2)nc(N2CCN(C(=O)C(C)n3cc(CCC(=O)O)nn3)CC2)n1 (centres undefined)	·	-4	0	·	8.5	5	·
COc1cc(Cl)c(C)cc1NC(=O)CN(C)C1CCS(=O)(=O)C1 (centres undefined)	·	-5	4	-7	-1.2	3	·
C=CCn1c(-c2ccc(OC)c(OC)c2)n[nH]c1=S	-10	1	·	-12	2.5	·	4807
O=C(O)c1ccc(-n2cccn2)nc1	-13	6	4	-10	3.4	2	2654
CS(=O)(=O)N(CC(=O)N1CCN(c2ccccc2)CC1)c1ccc(Cl)c(C(F)(F)F)c1	-1	0	-3	-17	-0.8	-8	10791
Cc1ccc(S(=O)(=O)N2CCC(C(=O)O)CC2)cc1C(=O)O	5	-2	5	-14	2.9	14	4699

An excerpt of these results, with values under each structure:
Below each compound: BJeLR viability | ugtP null kill | Mtb hypoxia inh | PrP 5UTR inh | RN4220 kill | Mtb hypoxia inh growth | Bead autofluor
> COc1ccc(CCN(C)CCc2ccc(OC)c(OC)c2)cc1OC
  1 | 3 | 0 | -10 | 2.5 | 9 | 5503
> Cc1ccc(S(=O)(=O)N2CCC(C(=O)O)CC2)cc1C(=O)O
  5 | -2 | 5 | -14 | 2.9 | 14 | 4699
> C#CCOCCOCCOCCNc1nc(N2CCN(C(=O)Cn3cc(CCCCN)nn3)CC2)nc(N2CCN(C(=O)C(C)n3cc(CCC(=O)O)nn3)CC2)n1 (centres undefined)
  · | -4 | 0 | · | 8.5 | 5 | ·
> CS(=O)(=O)N(CC(=O)N1CCN(c2ccccc2)CC1)c1ccc(Cl)c(C(F)(F)F)c1
  -1 | 0 | -3 | -17 | -0.8 | -8 | 10791
